KCNQ2 enhance: potentiators of rat KCNQ2 potassium channel. O88943. B-score at 10 µM. 310,000 compounds, 0.54% hits. AID 2239. CHO-K1 KCNQ2, FluxOR thallium flux fluorescence; hits give high values;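 active = fluorescence ratio B-score at least 3 SD of library B-scores, with initial fluorescence B-score within 3 SD, cut at about 5.3 in these data; same plate scores as AID 2156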;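 also: B-score of peak minus minimum over baseline fluorescence ratio after K+ and Tl+ stimulus; positive B-score means potentiation of KCNQ2 with more thallium influx and brighter signal; only the inactives scoring about 0 or higher are listed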
Target sequence (O88943 whole entry, looked up): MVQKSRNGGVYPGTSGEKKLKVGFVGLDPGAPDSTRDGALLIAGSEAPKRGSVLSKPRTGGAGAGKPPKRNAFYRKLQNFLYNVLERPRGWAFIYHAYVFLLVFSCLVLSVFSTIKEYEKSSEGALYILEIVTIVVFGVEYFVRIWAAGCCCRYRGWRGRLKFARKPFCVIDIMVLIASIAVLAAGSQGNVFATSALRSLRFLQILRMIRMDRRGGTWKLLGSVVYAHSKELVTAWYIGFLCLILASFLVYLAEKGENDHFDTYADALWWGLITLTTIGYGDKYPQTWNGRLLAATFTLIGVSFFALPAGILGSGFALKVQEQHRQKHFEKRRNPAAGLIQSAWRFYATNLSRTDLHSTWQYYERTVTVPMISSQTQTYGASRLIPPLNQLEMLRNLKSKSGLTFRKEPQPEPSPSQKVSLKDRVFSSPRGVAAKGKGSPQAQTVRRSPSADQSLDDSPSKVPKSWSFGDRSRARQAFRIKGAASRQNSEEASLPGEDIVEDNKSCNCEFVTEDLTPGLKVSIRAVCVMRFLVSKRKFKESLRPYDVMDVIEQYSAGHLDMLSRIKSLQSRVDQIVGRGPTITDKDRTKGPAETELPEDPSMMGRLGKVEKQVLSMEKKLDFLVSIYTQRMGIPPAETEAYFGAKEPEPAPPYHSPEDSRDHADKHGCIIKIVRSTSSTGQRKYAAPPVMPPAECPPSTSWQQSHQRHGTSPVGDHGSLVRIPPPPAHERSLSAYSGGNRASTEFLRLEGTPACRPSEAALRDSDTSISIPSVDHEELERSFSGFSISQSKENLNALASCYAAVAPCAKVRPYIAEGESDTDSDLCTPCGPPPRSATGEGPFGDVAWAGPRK
KCNQ2 enhance baseline: also measured in KCNQ2 enhance; calls as there; B-score; compound at 10 µM; measured here: initial fluorescence intensity artifact check;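 brightness before thallium and not channel activity; 0 = typical well and far values either way flag optical interference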
* = called active by the depositor. Only part of the results is shown; the hit share may differ from the screen's.

SMILES	KCNQ2 enhance	KCNQ2 enhance baseline
COc1ccc(C)cc1NC(=O)C(=O)c1cn(CC(=O)N2CCCC2)c2ccccc12	0.61	-1.2
C/C(=N\NC(=O)CO/N=C(\C)c1cccs1)c1ccc(N)cc1	1.4	-0.16
O=C(CSc1nnc(SCc2cccc3ccccc23)s1)c1ccc2c(c1)OCO2	2.1	0.83
CCOc1ccc(N2C(=O)CC(C(C)c3ccccc3)C2=O)cc1 (stereo unspecified)	0.49	-1.1
Cc1[nH]c2ccccc2c1C1=CN2CCS(=O)(=O)N=C2S1	0.61	-1.7
Nc1ccc(Nc2ccc([N+](=O)[O-])cc2[N+](=O)[O-])cc1	0.54	0.03
CCOc1ccc(NC(=O)CC2C(=O)NCCN2C(=O)Nc2ccccc2)cc1 (stereo unspecified)	0.59	1.6
O=C(O)c1cc(-c2cccs2)nc2ccc(Br)cc12	1.2	-0.25
CCCCOc1ccc(C(C)NC(=O)CCS(=O)(=O)Cc2ccc(Cl)cc2)cc1 (stereo unspecified)	1.1	-0.46
COc1ccc(CNC(=O)C2CC(C)=CCC2C(=O)O)cc1 (stereo unspecified)	1.9	1
CCCCS(=O)(=O)N1CCN(S(=O)(=O)c2cccs2)CC1	1.5	0.17
C/C(=N\N1CCN(c2ccc(Cl)cc2)CC1)c1cccc([N+](=O)[O-])c1	0.62	0.02
S=C(NCc1cccs1)Nc1cccc(Cl)c1	0.93	2.5
CCOc1ccc(CCNC(=O)COC(=O)COc2ccc(Br)cc2)cc1OCC	1.6	-0.25
CCS(=O)(=O)N1CCCC(C(=O)Oc2ccc(Br)cc2)C1 (stereo unspecified)	1.5	-1.2
CCOC(=O)c1ccc(Nc2ncnc3ccc(C)cc23)cc1	0.62	-2.5
COc1ccccc1C(=O)Nc1nnc(SCC(=O)NC2CCCC2)s1	1.6	-3.1
O=c1oc2ccc(Cl)cc2nc1/C=C(\O)c1ccco1	0.91	-1.3
O=C(/C=C/c1ccc(Cl)c(Cl)c1)Nc1cccnc1	1.6	0.2
O=C(COC(=O)CSc1ccc2ccccc2c1)NC1CCCC1	0.17	-1.2
Cc1cccc(CSc2nnc3c(n2)[nH]c2ccccc23)c1	0.19	-1.9
Cc1cccc(Cn2nc(C)cc2NC(=O)Cn2cc([N+](=O)[O-])cn2)c1	0.32	0.38
O=C(N/N=C/c1cccnc1)C1CCCN(S(=O)(=O)c2ccccc2)C1 (stereo unspecified)	0.07	0.01
NC(=O)c1oc2ccccc2c1NC(=O)c1nc2ccccc2s1	0.69	0.11
CC(C)Cc1nnc(NC(=O)CCC(=O)N2CC(C)CC(C)C2)s1 (stereo unspecified)	2.2	0.03
CCN(CC)S(=O)(=O)c1ccc(C)c(NC(=O)CNCc2ccccc2OC)c1	1.2	-0.59
CCN(CC)CCCN1C=C2C(=O)C(C)(OC(=O)C3CCCC3)C(=O)C=C2C=C1c1ccsc1 (stereo unspecified)	0.42	-0.14
Cc1ccc(OCCn2c(CCCO)nc3ccccc32)cc1	1.2	-0.19
NNC(=O)c1ccc(Cn2cc(Cl)cn2)cc1	0.29	1.7
Cn1c(Cc2ccccc2)nnc1SCC(=O)Nc1ccc(N2CCOCC2)cc1	1.7	-0.59
Cc1cc(NS(=O)(=O)c2ccc(NC(=O)CSc3nc4sc(C)c(C)c4c(=O)[nH]3)cc2)no1	0.3	-0.01
Cc1cc(C(=O)N/N=C/c2ccc([N+](=O)[O-])s2)n[nH]1	0.03	0.1
Cc1ccc(S(=O)(=O)N(C)CC(=O)OCC(=O)N2CCCC2=O)cc1	0.35	0.07
COc1ccc(CCNC(=O)C(=O)NCCOc2ccccc2)cc1OC	0.38	2.7
CC1(C)CC(=O)C(CC2CCCCC2=O)C(=O)C1 (stereo unspecified)	0.61	0.74
CCOC(=O)N1CCN(C(=O)CN(C)S(=O)(=O)c2ccc3c(c2)c(=O)n(C)c(=O)n3C)CC1	1.4	-1.5
COc1ccc(NC(=O)CN(C)S(=O)(=O)c2cccc3cccnc23)cc1	0.61	0.79
COc1cc(-c2nc(CN3CCN(CC(C)C)C(=O)[C@@H]3C)c(C)o2)ccc1F	1.1	-0.73
Cc1ccc(NC(=O)c2ccc([N+](=O)[O-])o2)cc1S(=O)(=O)N1CCOCC1	0.32	2.1
COc1ccc(Nc2nc(-c3cc4cccc(OC)c4oc3=O)cs2)cc1	0.31	-1.3
COC(c1ccccc1)c1nnc(CCC(=O)N(C)CCOc2ccccc2)o1 (stereo unspecified)	1.1	-0.7
O=C(c1cccc(Br)c1)N1CCN(c2cnn(-c3ccccc3)c(=O)c2Cl)CC1	0.89	0.25
CC(C)OC(=O)NC(Nc1ccccc1C(=O)O)(C(F)(F)F)C(F)(F)F	0.27	1.6
CC(=O)N1CC=CC1(CC(C)C)C(=O)NCCN1CCOCC1 (stereo unspecified)	1.1	-1.1
O=c1c2cnn(-c3ccccc3)c2nnn1Cc1ccccn1	0.12	-0.17
CCOC(=O)c1sc(NC(=O)C(OC(C)=O)c2ccccc2)nc1C (stereo unspecified)	0.17	0.08
COc1ccc(/C=N/NC(=O)c2cc(C(C)(C)C)[nH]n2)cc1COc1ccc(F)cc1F	1	0.17
CSc1ccccc1NC(=O)C(=O)c1c[nH]c2ccccc12	0.07	0.78
Cn1c2c(c(=O)n(C)c1=O)CN(CCCN1CCOCC1)CN2	0.46	-0.26
NS(=O)(=O)c1cc2c(cc1Cl)NC(c1ccccc1OCC(=O)O)NS2(=O)=O (stereo unspecified)	0.84	-0.35
COc1ccc(S(=O)(=O)/C(C#N)=C/Nc2cccc(F)c2)cc1	1.2	1.2
Cc1c(Cl)cccc1NC(=O)NNC(=O)CCc1ccccc1	0.38	-0.14
CCOc1ccc(S(=O)(=O)NN2Cc3ccccc3C2=N)cc1	0.35	-0.12
N/C(=N\OC(=O)c1cccc(Cl)c1)c1ccncc1	1.3	1
COc1ccc(NC(=O)COc2ccccc2)c(OC)c1	0.44	-0.34
O=C(COC(=O)CC1CC2CCC1C2)Nc1cc([N+](=O)[O-])ccc1F (stereo unspecified)	0.56	0.23
NC(=O)CSc1nc2ccccc2n1-c1ccccc1	1.8	-0.05
N#C/C(=C1/C(=O)Nc2ccc(Br)cc21)c1ccccn1	0.65	1.2
Cc1cccc(C2c3[nH]c4ccccc4c3CCN2Cc2cnn(-c3ccc(F)cc3)c2)n1 (stereo unspecified)	0.05	-1
CCN1/C(=C2\C(=O)N(C)C(=S)N2C)C=Cc2ccccc21	1.4	0.15

By substructure, those above containing fluorine.
SMILES	KCNQ2 enhance	KCNQ2 enhance baseline
COc1cc(-c2nc(CN3CCN(CC(C)C)C(=O)[C@@H]3C)c(C)o2)ccc1F	1.1	-0.73
CC(C)OC(=O)NC(Nc1ccccc1C(=O)O)(C(F)(F)F)C(F)(F)F	0.27	1.6
COc1ccc(/C=N/NC(=O)c2cc(C(C)(C)C)[nH]n2)cc1COc1ccc(F)cc1F	1	0.17
COc1ccc(S(=O)(=O)/C(C#N)=C/Nc2cccc(F)c2)cc1	1.2	1.2
O=C(COC(=O)CC1CC2CCC1C2)Nc1cc([N+](=O)[O-])ccc1F (stereo unspecified)	0.56	0.23
Cc1cccc(C2c3[nH]c4ccccc4c3CCN2Cc2cnn(-c3ccc(F)cc3)c2)n1 (stereo unspecified)	0.05	-1

Other compounds.
SMILES	KCNQ2 enhance	KCNQ2 enhance baseline
O=C(COc1ccccc1)NCc1nnc(SCC(=O)Nc2nccs2)n1-c1ccccc1	0.09	0.67
NC(=S)NC1CC2CC1C1C=CCC21 (stereo unspecified)	0.35	-0.17
CC(=O)Oc1ccccc1-n1c(C)nc(=O)c(-c2ccccc2)c1C	1.1	1.2
CC(=O)NNS(=O)(=O)c1scc(S(=O)(=O)c2ccc(Cl)cc2)c1C	0.15	0.42
CCCNC(=O)c1onc(CSc2ccc(F)cc2)c1C(=O)NCCOC	0.07	0.38
S=C(NCC1CCCO1)Nc1cc(Cl)c(Cl)cc1Cl (stereo unspecified)	0.52	-1.5
CCC(=O)N1c2ccc(S(=O)(=O)CCC(=O)NCCC3=CCCCC3)cc2CC1C (stereo unspecified)	0.27	3.4
COc1ccccc1/C=C/C(=O)Nc1nc(N)n(-c2ccccc2)n1	0.54	-2
COc1ccc(N(CC(=O)NC2CCCC2)C(=O)c2ccc(C)s2)c(OC)c1	1.9	-0.28
O=C(NCCNc1ccccc1[N+](=O)[O-])c1ccccc1F	3.3	-0.08
COc1ccccc1CN1CCNC(=O)C1CC(=O)NCc1cn(C)nc1C (stereo unspecified)	0.01	3.1
Cc1[nH]c2ccccc2c1N=Nc1cc(C(=O)O)cc(C(=O)O)c1	0.08	-0.26
O=S(=O)(c1cccc(-c2n[nH]c(=S)n2C2CCCC2)c1)N1CCOCC1	1.3	0.15
C[n+]1ccccc1/C=C/c1c(F)cccc1F	1.1	4.9
Cc1cc(C)n(-c2ccc(C(F)(F)F)cc2[N+](=O)[O-])n1	0.2	-1.4
COc1ccc(S(=O)(=O)N2CCOCC2)cc1NC(=O)COc1ncnc2ccccc12	0.8	-1.6
COc1cc(C(=O)NN(CCC#N)C2=NS(=O)(=O)c3ccccc32)cc(OC)c1OC	0.43	-2.3
COc1ccc(OC)c(C2NC(=O)NC(C)=C2C(=O)OCc2ccccc2)c1 (stereo unspecified)	2.1	-1.5
O=C(COC(=O)c1cc(=O)c2ccccc2o1)NCC1CCCCC1	0.65	-0.16
CC1CCCC(C)N1C(=O)COC(=O)c1ccc[nH]c1=O (stereo unspecified)	0.03	0.03
O=C1c2ccccc2C(=O)N1/N=C/c1ccc(Oc2ccc([N+](=O)[O-])cn2)cc1	2.2	-0.43
CCCC(=O)O[C@]1(C(=O)CO)CC[C@H]2[C@@H]3CCC4=CC(=O)CC[C@]4(C)[C@H]3[C@@H](O)C[C@@]21C	0.25	-0.55
COc1ccccc1NC1=NC(C)(C)N=C(N)N1	0.18	1
CCOc1cc(C(=O)Nc2ccc(S(=O)(=O)NC3=NCCCCC3)cc2)cc(OCC)c1OCC	0.84	-0.85
COc1cc(/C=N/NC(=O)c2ccc(NC(=O)C3CCCCC3)cc2)ccc1O	0.93	-1
O=C(Nc1ccc(Cl)c(Cl)c1)c1cccnc1	3.7	-0.35
CCOc1ccc(-c2nnc(-c3ccc(OC)cc3)o2)cc1	0.9	-2.3
S=C1NCN(Cc2ccccc2)CN1C1CCCCC1	1.3	1.8
O=C(NCCCO)/C(=C/c1ccc(-c2cccc([N+](=O)[O-])c2)o1)NC(=O)c1ccccc1	1.2	-0.34
O=C(C1CCN(Cc2ccccc2O)CC1)N1CCN(Cc2ccc3c(c2)OCO3)CC1	0.99	0.07

7 entries from above, with bars between the fields.
mol | KCNQ2 enhance | KCNQ2 enhance baseline
O=C(NCCCO)/C(=C/c1ccc(-c2cccc([N+](=O)[O-])c2)o1)NC(=O)c1ccccc1 | 1.2 | -0.34
S=C1NCN(Cc2ccccc2)CN1C1CCCCC1 | 1.3 | 1.8
COc1cc(/C=N/NC(=O)c2ccc(NC(=O)C3CCCCC3)cc2)ccc1O | 0.93 | -1
CCOc1ccc(-c2nnc(-c3ccc(OC)cc3)o2)cc1 | 0.9 | -2.3
COc1ccc(OC)c(C2NC(=O)NC(C)=C2C(=O)OCc2ccccc2)c1 (stereo unspecified) | 2.1 | -1.5
O=C(C1CCN(Cc2ccccc2O)CC1)N1CCN(Cc2ccc3c(c2)OCO3)CC1 | 0.99 | 0.07
O=C(Nc1ccc(Cl)c(Cl)c1)c1cccnc1 | 3.7 | -0.35

Carrying on:
SMILES	KCNQ2 enhance	KCNQ2 enhance baseline
COc1ccc(C(c2sc3nc(C)nn3c2O)N2CCC3(CC2)OCCO3)cc1 (stereo unspecified)	1.5	-0.01
COc1cccc(C2CC(=O)Nc3c2c(=O)[nH]c2ncnn32)c1 (stereo unspecified)	0.16	2.4
O=C1OCCC1Sc1nnc(-c2ccco2)n1-c1ccccc1 (stereo unspecified)	0.75	0.34
CCOC(=O)/C(C#N)=C\c1cc(OC)c(OC)cc1[N+](=O)[O-]	0.11	2
CC(Sc1nnc(-c2cc3ccccc3o2)n1-c1ccccc1)C(=O)O (stereo unspecified)	1.7	0.05
CC1=NN(C(=S)Nc2ccccc2)C(c2ccccc2)C1 (stereo unspecified)	1.4	0.41
CC1CCc2c(sc3nc(CSc4n[nH]c(N)n4)[nH]c(=O)c23)C1 (stereo unspecified)	1.9	-0.86
O=S(=O)(NN1CCOCC1)c1cc(Cl)cc(Cl)c1O	0.13	-2.3
CC(=O)Nc1ccc(S(=O)(=O)Nc2ccc3c(c2)OCO3)cc1	1.1	1.1
CCCn1c2ccc(F)cc2c2nnc(NN)nc21	3.1	-0.98
CCC(C)OC(=O)C1=C(C)NC(=O)NC1c1ccc(F)cc1 (stereo unspecified)	1.2	-0.97
COC(=O)N1CC(=O)N(OC)C1c1ccc(Cl)cc1Cl (stereo unspecified)	0.2	0.51
Cc1ccc(-c2nnc(-c3ccc(NC(=O)c4ccco4)cc3)o2)cc1	0.3	0.01
COc1cc2c(cc1OC)[C@@H]1Cc3cc4c(cc3[C@H](C2)N1C)OCO4	0.42	0.1
Clc1ccc(-n2ncc3c(NCCN4CCOCC4)ncnc32)cc1	3.7	-0.32
Cn1c(CNC(=O)CCNC(=O)c2ccccc2)cc(=O)n(C)c1=O	0.03	1.2
COc1ccc(CCNC(=O)CCNC(=O)N2CC(=O)Nc3ccccc32)cc1OC	0.75	0.06
CCCCN(CC)C(=O)c1ccc(Cl)c(Cl)c1	0.02	-1.2
COc1cccc(-n2c(N)c(C(=O)Nc3c(C)n(C)n(-c4ccccc4)c3=O)c3nc4ccccc4nc32)c1	1.3	-0.1
CC1CCc2nc(NC(=O)CN3CCN(Cc4ccc5c(c4)OCO5)CC3)sc2C1 (stereo unspecified)	3.7	-2.4
O=C(Nc1nccs1)c1cc2c(s1)CCCCC2	3.5	0.36

Screening results deposited in PubChem BioAssay by Johns Hopkins Ion Channel Center.
